Compound activity deposited in PubChem BioAssay by National Center for Advancing Translational Sciences (NCATS).
LASV entry inh = inhibitors of Lassa virus binding or cell entry. Lassa virus pseudotype entry inhibition, cell reporter; control for the full effect not named in the record. Potency, µM (titrated, usually from 37.9 µM), without a hit: top-dose activity change, negative = inhibition, hits mostly inhibitors. hit rate 1.2% among 300,000. AID 540256; active means well fitted inhibition curve with a large enough effect; inconclusive means small, poorly fitted or top-dose-only effect, or effect the other way; inactive means flat fitted curve, though single readings scatter; tested in HEK293 cells; note: % is set by controls: 0 for no effect and ±100 for the full control effect; nearly all actives have a fitted effect of over 50% in size; luciferase read-out
Cruzain noTriton = cruzain (T. cruzi) inhibition without detergent. hit rate 2.3% among 200,000. Potency, µM, without a hit: max response, negative = inhibition, usual class: inhibitors. purified cruzain, Z-FR-AMC fluorescence, no detergent. AID 1476; active = well fitted curve in the direction sought with a large enough effect; inconclusive = small, poorly fitted or top-dose-only effect, or another doubt; inactive = no such curve, though single readings can be large; an effect the other way counts as inactive or inconclusive;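 note: plate controls were enzyme without inhibitor for no effect and buffer without enzyme for full effect; nearly all actives have a fitted effect of over 40% in size; top concentration of the series not given in the record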
Target sequence (P25779 123-467 limits assumed): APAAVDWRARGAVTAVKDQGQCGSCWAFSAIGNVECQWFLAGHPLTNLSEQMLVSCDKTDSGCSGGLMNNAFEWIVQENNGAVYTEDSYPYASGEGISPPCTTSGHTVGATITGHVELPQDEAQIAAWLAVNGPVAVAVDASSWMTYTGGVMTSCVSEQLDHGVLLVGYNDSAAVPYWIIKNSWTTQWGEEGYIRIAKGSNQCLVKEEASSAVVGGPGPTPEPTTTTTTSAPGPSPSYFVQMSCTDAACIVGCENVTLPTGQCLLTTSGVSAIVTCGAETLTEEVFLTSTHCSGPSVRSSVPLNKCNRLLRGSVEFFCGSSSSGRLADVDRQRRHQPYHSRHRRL
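Purified cruzain at 1.5 nM, pre-incubated 15 min with compound at room temperature in 100 mM sodium acetate pH 5.5, 5 mM DTT, 0.00005% Triton X-100. Reaction started with 2 uM Z-FR-AMC; AMC fluorescence increase over 60 s gives rate.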
RE007 growth inh = less growth of the S. pombe RE007 Vpr strain | S. pombe RE007 Vpr strain, BacTiter-Glo ATP luminescence, 24 h; control for the full effect not named in the record | hit rate 0.21% among 360,000 | Potency, µM (top dose mostly 92.2 µM), for inactives: at the top dose activity change, negative = less growth; active = well fitted falling curve with a large enough effect; inconclusive = small, poorly fitted or top-dose-only effect; inactive = no such curve, though single readings can be large or run the other way;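 note: % is set by controls: 0 for no effect and ±100 for the full control effect; nearly all actives have a fitted effect of over 50% in size; the assay follows cell death caused by Vpr and the record does not say whether a fall means rescue or toxicity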
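Fission yeast RE007 carrying one integrated HIV-1 vpr copy, seeded at OD 0.01 in PMG+AL medium with 23 nL pinned compound. Grown 24 h at 30 degrees; viability read by BacTiter-Glo luminescence after 5 min.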
Cruzain Triton = cruzain (T. cruzi) inhibition with detergent; P25779; purified cruzain, Z-FR-AMC fluorescence, 0.01% Triton; Potency, µM, for inactives: max response, negative = inhibition, actives largely listed as inhibitors; hit rate 0.43% among 200,000; AID 1478; active = well fitted curve in the direction sought with a large enough effect; inconclusive = small, poorly fitted or top-dose-only effect, or another doubt; inactive = no such curve, though single readings can be large; an effect the other way counts as inactive or inconclusive;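 note: plate controls were neutral wells for no effect and buffer without enzyme for full effect; nearly all actives have a fitted effect of over 40% in size; top concentration of the series not given in the record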
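Enzyme 1.5 nM, Z-FR-AMC 2 uM, NaOAc 100 mM pH 5.5, DTT 5 mM, Triton X-100 0.01%; 15 min RT compound preincubation; kinetic ex360/em450, 60 s delta.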
MARV entry inh = blocks Marburg virus binding to or entry into cells. Marburg virus pseudotyped entry inhibition, cell reporter; control for the full effect not named in the record; about a third of the inactives were read at about 46 µM. Potency, µM (titrated, usually from 37.8 µM), inactives show at the highest dose activity change, negative = inhibition, hits mostly inhibitors. hit rate 1.8% among 300,000. AID 540276; active = well fitted inhibition curve with a large enough effect; inconclusive = small, poorly fitted or top-dose-only effect, or effect the other way; inactive = flat fitted curve, though single readings scatter; tested in HEK293 cells; about a fifth of its hits are not listed in these tables; note: % is set by controls: 0 for no effect and ±100 for the full control effect; luciferase read-out
StopGo reporter = FMDV 2A StopGo reporter, luciferase signal | human cells with a luciferase reporter of 2A StopGo recoding; control for the full effect not named in the record | Potency, µM (doses to about 57.9 µM), inactives show at the highest dose signal change, negative = less light | hit rate 1.2% among 410,000 | AID 1159524; active = well fitted falling curve with a large enough effect; inconclusive = small, poorly fitted or top-dose-only effect; inactive = no such curve, though single readings can be large or run the other way; tested in HEK293T cells; note: % is set by controls: 0 for no effect and ±100 for the full control effect; nearly all actives have a fitted effect of over 45% in size; luciferase light after 4 h
SARS PLP yeast = inhibitors of SARS-CoV papain-like protease in yeast. Potency, µM (top dose mostly 32.9 µM), for inactives: at the highest dose activity, positive = growth rescue. S. cerevisiae expressing SARS-CoV PLpro, growth rescue; control for the full effect not named in the record. hit rate 0.19% among 330,000; note: 0% is about no effect; nearly all actives have a fitted effect of over 55% in size; growth read by luminescence after 48 h
NS1 inh = inhibitors of influenza NS1 protein function | S. cerevisiae slowed by influenza A NS1, growth recovery by OD600 | Potency, µM (titrated, usually from 46.1 µM), for the others: at the highest dose activity, positive = more growth | hit rate 0.4% among 270,000 | AID 2326; note: actives are rising curves; nearly all actives have a fitted effect of over 50% in size
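Read-out: OD600 growth recovery of NS1-expressing budding yeast. Cells grown overnight at 30C in -URA glucose medium, washed, resuspended and diluted 1:100 in 2% galactose assay medium, pH 6.0. Same strain lacking NS1 served as positive control.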
Starred values were filed as active, the others as inactive; & = joins results of further samples; [ ] = remark or other dose. Unless noted, calls come from the whole dose curve; as a rule, active means well fitted rising curve with a large enough effect; inconclusive means small, poorly fitted or top-dose-only effect; inactive means no such curve, though single readings can be large or run the other way. Potency is the fitted concentration of half-maximal effect.

Results for COc1cccc(NC(=S)N(CCN(C)C)C(C)c2cccnc2)c1 (stereo unspecified) ?
LASV entry inh: -12%; RE007 growth inh: 6%; MARV entry inh: -7%[46.1 µM]; StopGo reporter: 13%; SARS PLP yeast: 2%

How did CCOC(=O)CS(=O)(=O)c1nc(-c2ccccc2)cc(C(F)(F)F)n1 do in these assays?
LASV entry inh: inconclusive; Cruzain noTriton: 11%; RE007 growth inh: inconclusive; Cruzain Triton: -6.7%; MARV entry inh: inconclusive; StopGo reporter: 22µM*; SARS PLP yeast: -57%; NS1 inh: -202%

Results for COc1ccc(C2CC(=O)c3cc(-c4nc(-c5cccc([N+](=O)[O-])c5)cs4)c(=O)n(-c4ccccc4C)c3C2)cc1 (stereo unspecified) ?
LASV entry inh: 20%[46.1 µM]; Cruzain noTriton: -14%; Cruzain Triton: 7.9%; MARV entry inh: inconclusive; StopGo reporter: -7%

What do the screens show for `COc1ccc(C)cc1NC(=O)C1CCC(CNS(=O)(=O)c2ccc3c(c2)CCCC(=O)N3)CC1` (stereo unspecified)?
LASV entry inh: 0%[46.1 µM]; Cruzain noTriton: inconclusive; Cruzain Triton: -1.2%; StopGo reporter: inconclusive

Results for CCc1ccc(NC(=O)c2cc3c([nH]c2=O)CC(C)(C)CC3=O)cc1 ?
LASV entry inh: 27%[46.1 µM]; Cruzain noTriton: 2%; Cruzain Triton: -1.1%; MARV entry inh: -12%[46.1 µM]; StopGo reporter: 43%[activator]

Results for COc1ccc(-n2nc([N+](=O)[O-])c(=NCc3ccc4c(c3)OCO4)n2O)cc1 ?
LASV entry inh: 4%; Cruzain noTriton: 4%; RE007 growth inh: -25%; Cruzain Triton: -8.4%; MARV entry inh: inconclusive; StopGo reporter: 8%; SARS PLP yeast: -6%; NS1 inh: -2%

How did Cc1cccc(C(=O)OCC(=O)N(CC(C)C)c2c(N)n(Cc3ccccc3)c(=O)[nH]c2=O)c1C do in these assays?
LASV entry inh: inconclusive; RE007 growth inh: 3%; MARV entry inh: 0%; StopGo reporter: -2%; SARS PLP yeast: 8%

What do the screens show for `CCOc1ccc(C2C(C(=O)c3cccs3)=C(O)C(=O)N2Cc2cccnc2)cc1OC` (stereo unspecified)?
RE007 growth inh: 1%; MARV entry inh: 3%[46.1 µM]; StopGo reporter: 26%; SARS PLP yeast: 0%; NS1 inh: 10%

How did CC(=O)c1c(C)[nH]c(C(=O)OCc2nc3ccsc3c(=O)[nH]2)c1C do in these assays?
LASV entry inh: 28%; RE007 growth inh: 2%; MARV entry inh: 6%; StopGo reporter: 3%; SARS PLP yeast: -4%

What do the screens show for `Cn1c(=O)n(CC(=O)N2CCC3(CC2)OCCO3)c(=O)c2ccccc21`?
LASV entry inh: -5%; Cruzain noTriton: -7%; RE007 growth inh: -7%; Cruzain Triton: -1.5%; MARV entry inh: -5%; StopGo reporter: -1%; SARS PLP yeast: 1%; NS1 inh: 3%

What do the screens show for `CCS(=O)(=O)N1CCN(CC2CC3C=CC2C3)CC1` (stereo unspecified)?
LASV entry inh: 6%; Cruzain noTriton: 1%; RE007 growth inh: -7%; Cruzain Triton: 7.4%; MARV entry inh: 12%; StopGo reporter: 5%; SARS PLP yeast: 4%; NS1 inh: 5%

What do the screens show for `OC(CCCN1CCC(O)(c2ccc(Cl)cc2)CC1)c1ccc(F)cc1` (stereo unspecified)?
LASV entry inh: inconclusive; Cruzain noTriton: -16%; RE007 growth inh: 0%; Cruzain Triton: -5.3%; MARV entry inh: inconclusive; StopGo reporter: -1%; SARS PLP yeast: -5%; NS1 inh: -14%

What do the screens show for `O=C(Nc1ccc([N+](=O)[O-])cc1)C1(c2ccccc2)CCOCC1`?
LASV entry inh: -19%; Cruzain noTriton: -6%; RE007 growth inh: -3%; Cruzain Triton: -3.2%; MARV entry inh: inconclusive; StopGo reporter: -9%; SARS PLP yeast: 9%; NS1 inh: -3%

What do the screens show for `CSCCC(=O)N1CCC(n2nccc2NC(=O)c2ccc3c(c2)OCO3)CC1`?
LASV entry inh: 0%; RE007 growth inh: 50%; MARV entry inh: inconclusive; StopGo reporter: 102%[activator]; SARS PLP yeast: -8%; NS1 inh: -7%

How did CC(/C=N/NC(=O)Cc1cc(=O)[nH][nH]1)=C\c1ccccc1 do in these assays?
LASV entry inh: 11%; Cruzain noTriton: -2%; RE007 growth inh: 9%; Cruzain Triton: 2.0%; MARV entry inh: 1%; StopGo reporter: 11%; SARS PLP yeast: 0%; NS1 inh: 28%

Results for Cc1ccc(SCC2(O)CCN(C(=O)c3ccc(Cl)cc3)CC2)cc1 ?
LASV entry inh: -7%; Cruzain noTriton: inconclusive; RE007 growth inh: -1%; Cruzain Triton: -7.3%; MARV entry inh: -13%; StopGo reporter: inconclusive; SARS PLP yeast: -1%; NS1 inh: -5%

Results for Cc1cccc(-c2c3c(=O)n(C)c(=O)n(C)c3c3cccnn23)c1 ?
LASV entry inh: -14%; Cruzain noTriton: 0%; RE007 growth inh: 3%; Cruzain Triton: -5.6%; MARV entry inh: -10%; StopGo reporter: inconclusive; SARS PLP yeast: 10%; NS1 inh: -6%

Results for CCc1cc2c(cc3c(=O)n(CC(=O)N4CCCCC4)ncn32)s1 ?
Cruzain noTriton: -9%; Cruzain Triton: -8.6%; MARV entry inh: 10%[46.1 µM]; StopGo reporter: 12%

What do the screens show for `CCN1CCCC1CNC(=O)Cn1cccc1C(=O)c1ccccc1` (stereo unspecified)?
LASV entry inh: 1%; Cruzain noTriton: -2%; RE007 growth inh: -3%; Cruzain Triton: -0.8%; MARV entry inh: 15%; StopGo reporter: -20%; SARS PLP yeast: -1%; NS1 inh: 2%

Results for CC1=CC(C)C2(CO)COC(c3cccnc3)C1C2C (stereo unspecified) ?
LASV entry inh: -16%; Cruzain noTriton: 17%; RE007 growth inh: -1%; Cruzain Triton: -0.9%; MARV entry inh: 44%; StopGo reporter: 2%; SARS PLP yeast: 0%; NS1 inh: -5%

How did CC(O)c1nc2ccccc2n1CCCCOc1ccccc1 (stereo unspecified) do in these assays?
LASV entry inh: -30%[46.1 µM]; RE007 growth inh: 11%; MARV entry inh: inconclusive; StopGo reporter: -24%; SARS PLP yeast: 0%; NS1 inh: -9%

What do the screens show for `Cc1ccc(-c2nc(CNC(=O)c3cc(C)on3)cs2)cc1`?
RE007 growth inh: -4%; StopGo reporter: -12%; SARS PLP yeast: -12%; NS1 inh: -57%

What do the screens show for `COC(=O)c1ccc(C(=O)N(C)C2CCCN(Cc3ccccc3F)C2)nc1` (stereo unspecified)?
RE007 growth inh: -7%; StopGo reporter: -13%; SARS PLP yeast: 1%; NS1 inh: 7%

Results for COc1cc(/C=C2/C(=O)NN(c3cccc(F)c3)C2=O)ccc1OC(=O)c1ccco1 ?
LASV entry inh: 10%; Cruzain noTriton: inconclusive; RE007 growth inh: 8%; Cruzain Triton: 1.4%; MARV entry inh: 10%; StopGo reporter: inconclusive; SARS PLP yeast: 22%; NS1 inh: -7%

What do the screens show for `COc1ccc(C(=O)c2c(C(F)(F)F)oc3c2C(=O)c2ccccc2C3=O)cc1`?
LASV entry inh: inconclusive; Cruzain noTriton: -13%; RE007 growth inh: inconclusive; Cruzain Triton: -5.8%; MARV entry inh: 3.2µM*; StopGo reporter: inconclusive; SARS PLP yeast: -42%; NS1 inh: 8%

What do the screens show for `COc1ccc(NS(=O)(=O)c2c(C(=O)N3CCCCCC3)c(C)n(C)c2C)cc1OC`?
LASV entry inh: 2%[46.1 µM]; RE007 growth inh: -4%; MARV entry inh: 18%[46.1 µM]; StopGo reporter: 2%; SARS PLP yeast: 24%; NS1 inh: 6%

Results for CCC(=O)N1c2ccccc2CC1C(=O)NCCc1ccc(OC)cc1OC (stereo unspecified) ?
LASV entry inh: 6%[46.1 µM]; Cruzain noTriton: -8%; Cruzain Triton: 0.6%; StopGo reporter: -14%

What do the screens show for `COc1cc(C2C3=C(CC(C)(C)CC3=O)Nc3c2c(=O)[nH]c(=O)n3Cc2ccccc2)ccc1O` (stereo unspecified)?
LASV entry inh: 4%&12%; Cruzain noTriton: -5%; RE007 growth inh: 6%; Cruzain Triton: -1.7%; MARV entry inh: 17%&5%; StopGo reporter: -6%; SARS PLP yeast: 5%; NS1 inh: -64%&-7%

How did COc1ccc(N(CC(=O)N2CC=C(c3ccccc3)CC2)S(=O)(=O)c2c(C)noc2C)cc1 do in these assays?
Cruzain noTriton: 3%; RE007 growth inh: -17%; Cruzain Triton: -5.1%; StopGo reporter: -20%; SARS PLP yeast: -1%; NS1 inh: -50%

How did CCCCOc1ccc(N2C(=O)CC(N(CCc3ccccc3)C(=O)/C=C/C(=O)O)C2=O)cc1 (stereo unspecified) do in these assays?
LASV entry inh: 7%; Cruzain noTriton: inconclusive; RE007 growth inh: 3%; Cruzain Triton: -0.4%; MARV entry inh: inconclusive; StopGo reporter: -7%; SARS PLP yeast: 3%; NS1 inh: -5%

How did O=C(CCCCCN1C(=O)c2ccccc2C1=O)NCc1ccco1 do in these assays?
LASV entry inh: 25%; Cruzain noTriton: 1%; RE007 growth inh: 1%; Cruzain Triton: -7.7%; MARV entry inh: 1%; StopGo reporter: -22%; SARS PLP yeast: 0%; NS1 inh: -8%

A stretch of the results above, as a working copy:
Results for COc1cccc(NC(=S)N(CCN(C)C)C(C)c2cccnc2)c1 (stereo unspecified) ?
LASV entry inh: -12%; RE007 growth inh: 6%; MARV entry inh: -7%[46.1 µM]; StopGo reporter: 13%; SARS PLP yeast: 2%

How did CCOC(=O)CS(=O)(=O)c1nc(-c2ccccc2)cc(C(F)(F)F)n1 do in these assays?
LASV entry inh: inconclusive; Cruzain noTriton: 11%; RE007 growth inh: inconclusive; Cruzain Triton: -6.7%; MARV entry inh: inconclusive; StopGo reporter: 22µM*; SARS PLP yeast: -57%; NS1 inh: -202%
